Compound activity deposited in PubChem BioAssay by several laboratories.
ugtP null kill – growth inhibition of ugtP-null S. aureus, primary screen, RN4220 ugtP deletion, OD600 | 16 h; some inactives read as strong as hits | growth inhibition, % (test concentration not listed) | hit rate 0.54% among 330,000;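 active = z-score under -3 and OD600 up to 0.15 on both plates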;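 note: plate controls were untreated wells for no effect and antibiotic for full effect; wells of about 80 µL received 100 nL stock; the first replicate is given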
PrP 5UTR inh – inhibition of PrP 5' UTR reporter expression; cell-based PrP 5' UTR mRNA reporter, plate reader; inhibition, % (concentration not given with the values); AID 488862, 2010; hit rate 0.35% among 340,000;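 active = every replicate at 50% or more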;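 note: 0 = median of the neutral control wells; tested in H4 reporter cells; numbers are from one replicate; inactives centre near -14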
Mtb hypoxia inh – PubChem AID 1159583; fluorescence inhibition, % (concentration not given with the values); hit rate 0.1% among 300,000; M. tuberculosis hypoxia-regulated fluorescent reporter, fluorescence;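 active = 35 to 45% if threefold the growth effect, above 45% if 1.5-fold the growth effect; inactive = the rest, general growth blockers included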;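 note: wells of about 50 µL received 100 nL stock; 0% = vehicle wells and 100% = reference inhibitor wells; whole bacteria with a GFP reporter of the hypoxia response; strong numbers were not always called active; many hits fall short of the cut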
BJeLR viability – MLPCN primary cell-based screen for lethality selective to Ras in HRASV12 cells. BJeLR (HRASV12) viability, CellTiter-Glo ATP luminescence, 48 h; reference of the scale not given here. hit rate 0.17% among 300,000. inhibition, % (concentration not given with the values);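 active = replicate mean above 50%; inconclusive = above 50% but judged a plate artefact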;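 note: 50 nL library stock added to about 25 µL; numbers are from one replicate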
RN4220 kill – growth inhibition of S. aureus RN4220, primary screen, OD600 | hit rate 0.33% among 330,000 | inhibition, % (concentration not given with the values) | AID 1259311, 2017 | 16 h;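 active = z-score of -3 or lower and OD600 up to 0.18 on both plates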;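 note: plate controls were untreated cells for no effect and reference antibiotic for full effect; stock transfer was 100 nL into about 80 µL; one replicate is shown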
Bead autofluor – compound fluorescence in toxin protease inhibitor counterscreen. fluorescence intensity (concentration not given with the values). compound autofluorescence counterscreen, microsphere flow cytometry; active compounds read high. AID 624483. hit rate 3.1% among 360,000;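 active = at least 3 SD above the mean of all compounds, about 16000 in these data; inconclusive = too few beads counted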;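 note: 100 nL of 1 mM stock went into each well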
Mtb hypoxia inh growth – also measured in Mtb hypoxia inh; calls as there; growth inhibition, %; measured here: M. tuberculosis growth (absorbance);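 0% = vehicle and 100% = reference antibiotic; read after six days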
The depositor's hits bear a star; ? = inconclusive; · = no result given; & = joins results of further samples.

1) CCOC(=O)c1[nH]c2cc(OC)c(OC)cc2c1NC(=O)CN(C)C1CCCCC1
2) CCN1C(=O)NC(c2cccc(C(F)(F)F)c2)C(C(=O)OC)C1C (stereo unspecified)
3) CCCc1nnc(NC(=O)CCC(=O)N2CCCCC2)s1
4) CCC(C)[C@H](NC(=O)N1CC(=O)Nc2ccccc21)C(=O)Nc1nccs1 (stereo partly specified)
5) CCCCCc1ccc(-c2cn(CN3C(=O)c4ccccc4C3=O)nn2)cc1
6) CC(C)CC(c1nnnn1CC1CCCO1)N1CCN(c2nc3ccccc3s2)CC1 (stereo unspecified)
7) Cc1oc2c(C)c3oc(=O)c(CCC(=O)NCCCN4CCOCC4)c(C)c3cc2c1C
8) Cc1ccc(C(=O)Nc2ccc3c(c2)CCC3)cc1S(=O)(=O)N1CCOCC1

Screen / compound no.,1,2,3,4,5,6,7,8
ugtP null kill,-31,-1&0,0,15,-1,2,-4,7
PrP 5UTR inh,-16,·,-19,-5,-5,-18,-17,-41
Mtb hypoxia inh,6,2&5,-5,4,20,·,·,-9
Mtb hypoxia inh growth,15,13&12,-5,-4,5,·,·,-10
BJeLR viability,-15,·,3,1,-13,2,3,3
RN4220 kill,2.7,0.3&3.4,2.8,3.1,8.0,0.6,-1.2,1.6
Bead autofluor,11681,·,5261,4323,3391,4339,6044,2183

9) NS(=O)(=O)c1cccc(C(=O)OCC(=O)NC2CCCc3ccccc32)c1 (stereo unspecified)
10) CCO/C=C1/C(=O)N(c2ccc(OC)cc2)C(=O)c2ccccc21
11) C/C(Cn1cnc([N+](=O)[O-])n1)=N\NC(=O)c1cccc(F)c1
12) CCn1c(=O)n(CC)c2cc(N)ccc21
13) O=c1[nH]cnc2c1ncn2C1OC(COS(=O)(=O)O)C(O)C1O (stereo unspecified)
14) COc1cc(-c2ccc(Nc3ccccc3C(=O)O)c(OC)c2)ccc1Nc1ccccc1C(=O)O
15) CCOc1cc(N2CCOCC2)c(OCC)cc1NC(=O)c1ccc(C)s1
16) Cc1nn2c(=O)cc(CSCC(=O)Nc3ccccc3Cl)nc2s1

Screen / compound no.,9,10,11,12,13,14,15,16
ugtP null kill,-3,9,·,1,1,55,8,-8
PrP 5UTR inh,-5,-32,-21,-30,·,-14,-27,-20
Mtb hypoxia inh,0,11,·,-10,15,0,12,-8
Mtb hypoxia inh growth,10,13,·,-3,3,6,11,2
BJeLR viability,·,11,-1,-2,·,·,3,-1
RN4220 kill,1.8,-1.7,·,1.3,7.8,27,7.6,-4.6
Bead autofluor,3759,3252,4265,5429,·,3506,5015,5861

17) Cc1nc(SCc2ccc(Cl)c(Cl)c2)ncc1C(=O)O
18) Cc1cc(C(=O)N2CCCC(N3CCN(c4cccc(C(F)(F)F)c4)CC3)C2)no1 (stereo unspecified)
19) Cn1nc(C(=O)Nc2cc(Cl)ccc2N2CCCC2)c2ccccc2c1=O
20) Cc1cc(C=NNC(=O)C(O)(c2ccccc2)c2ccccc2)c(C)n1-c1ccc(C(=O)O)cc1
21) CC(C=NNC(=O)c1ccc2c(c1)OCO2)c1ccccc1 (stereo unspecified)
22) O=C(NCCc1ccccn1)c1ccc(COc2ccccc2)o1
23) COc1ccc(CN2CCCC(C(=O)c3ccc4c(c3)OCO4)C2)c(F)c1 (stereo unspecified)
24) COc1ccc(C=O)c(OC)c1

Screen / compound no.,17,18,19,20,21,22,23,24
ugtP null kill,32,11,100*,4,13,0,11,0
PrP 5UTR inh,-15,-1,4,·,·,-24,-12,-11
Mtb hypoxia inh,7,6,-9,0,8,7,0,3
Mtb hypoxia inh growth,2,0,-2,-1,2,20,2,0
BJeLR viability,4,2,·,·,·,-7,0,-1
RN4220 kill,41,3.3,100*,3.0,6.4,3.6,0.0,5.6
Bead autofluor,3600,5860,3219,·,·,19404*,5939,3971

25) Cc1nnc(SCC(=O)Nc2cccnc2Cl)s1
26) COC(=O)C1C(c2ccccc2)C(C(=O)O)C1c1ccccc1 (stereo unspecified)
27) CN=C(c1ccc([N+](=O)[O-])cc1)N1CCCCC1
28) COC(=O)NN=Cc1cc(Cl)cc(Cl)c1OCc1ccccc1F
29) CCCCC1CCC(C(=O)NCc2ccc3c(c2)OCO3)CC1 (stereo unspecified)
30) CC(C)Oc1ccc(C2CC(=O)N(c3cccc(/C=C/C(=O)O)c3)C2=O)cc1 (stereo unspecified)
31) Cc1c(/C=N/NC(=O)C(NC(=O)c2ccc3c(c2)OCO3)C(C)C)c2ccccc2n1C (stereo unspecified)
32) CC(C)(SC(=S)N1CCCCCC1)C(=O)O

Screen / compound no.,25,26,27,28,29,30,31,32
ugtP null kill,1,7,6,-3,7,8,·,7
PrP 5UTR inh,-19,-16,-15,·,-27,-3,6,-9
Mtb hypoxia inh,4,9,5,-1,16,-7,·,2
Mtb hypoxia inh growth,-2,-9,8,4,0,-1,·,-5
BJeLR viability,-4,-3,-4,·,0,-3,-7,-6
RN4220 kill,2.8,10,5.3,0.2,0.9,-2.8,·,5.4
Bead autofluor,?,2849,3373,·,23610*,3600,9541,4508

33) O=C1OC(c2ccc(Cl)cc2)=N/C1=C\c1cccnc1
34) CCOc1cc(NC(=S)NCCCN2CCOCC2)c(OCC)cc1NC(=O)c1ccc(C)cc1
35) CC(Oc1ccccc1)C(=O)N=C1SC2CS(=O)(=O)CC2N1c1ccc(F)cc1 (stereo unspecified)
36) N#Cc1cnn(-c2ccccc2)c1NC(=O)CN1CCOCC1
37) CC1Cc2ccccc2N1CC(=O)N(C)c1c(N)n(Cc2ccccc2)c(=O)[nH]c1=O (stereo unspecified)
38) COc1ccccc1NC(=O)CSc1nnc(C)n1CC1CCCO1 (stereo unspecified)
39) Cc1ccc(OCCOC(=O)c2nc3nccc(C)n3n2)cc1
40) CN(Cc1nccs1)C(=O)C1CCC(=O)N(CCCc2ccccc2)C1 (stereo unspecified)

Screen / compound no.,33,34,35,36,37,38,39,40
ugtP null kill,2,8,7,-7,1,18,-1,7
PrP 5UTR inh,0,1,-9,·,3,-8,-20,-18
Mtb hypoxia inh,·,-1,4,-2,-1,22,3,1
Mtb hypoxia inh growth,·,19,-3,2,0,-20,2,-13
BJeLR viability,-9,4,4,-6,·,-1,-4,-4
RN4220 kill,-1.1,7.0,4.8,-0.1,2.7,21,4.2,2.8
Bead autofluor,3612,3068,4444,·,3989,2509,4781,4316

41) COc1cccc(CNC(=O)Nc2cccs2)c1
42) O=C(O)COc1ccccc1C=NNC(=O)COc1ccc(-c2ccccc2)cc1
43) Cc1cccc(C(=O)NCCN2CCN(c3ccccc3)CC2)c1
44) COC(C(=O)Nc1c(F)cccc1F)c1ccccc1 (stereo unspecified)
45) COc1cccc(C=NNC(=O)C[n+]2ccccc2)c1O
46) Cc1ccccc1N1CCN(C2CCCN(C(=O)c3csc(C(C)C)n3)C2)CC1 (stereo unspecified)
47) O=C(Oc1ccccc1)n1c(=S)oc2ccccc21
48) O=C(CSc1nc2ccccc2o1)NCc1ccco1

Screen / compound no.,41,42,43,44,45,46,47,48
ugtP null kill,0,14,6,-2,7,3,5,2
PrP 5UTR inh,-16,·,-27,2,·,-7,-8,-8
Mtb hypoxia inh,11,5,·,4,6,14,-8,17
Mtb hypoxia inh growth,15,7,·,4,4,10,-6,12
BJeLR viability,-8,·,1,-1,·,-10,2,-7
RN4220 kill,-5.4,6.7,6.6,3.1,4.2,3.9,-2.1,2.6
Bead autofluor,2335,·,5096,5066,·,6073,2632,3149

49) CNC(=O)C1CCN(S(=O)(=O)c2c(C)noc2/C=C/N(C)C)CC1
50) Cc1c(CCC(=O)NCCCn2ccnc2)c(=O)oc2c(C)c3oc4c(c3cc12)CCCC4
51) COc1ccc(NS(=O)(=O)c2cccc(C(=O)OCC(=O)NC3CC3)c2)cc1
52) CC(=NNS(=O)(=O)c1cccc([N+](=O)[O-])c1)c1ccc(-n2ccnc2)cc1
53) COc1cccc2cc(C(=O)N(Cc3cccs3)CC3CCCO3)c(=O)oc12 (stereo unspecified)
54) O=C(O)CSCC(=O)N1CCN(S(=O)(=O)c2cc(Cl)cc(Cl)c2)CC1
55) COc1ccc(OC)c(NC(=O)CCS(=O)(=O)c2cc3c(cc2C)NC(=O)CO3)c1
56) CCc1cccc(NC(=O)C2CCN(S(=O)(=O)c3c(C)noc3C)CC2)c1

Screen / compound no.,49,50,51,52,53,54,55,56
ugtP null kill,1,-13,7,-1,4,2,2,6
PrP 5UTR inh,-11,11,-11,-25,-9,-11,-15,-15
Mtb hypoxia inh,-9,·,8,4,6,5,-1,6
Mtb hypoxia inh growth,-1,·,4,3,2,1,1,-3
BJeLR viability,8,-3,1,·,-9,-10,-1,6
RN4220 kill,5.0,8.1,1.0,3.4,2.4,-0.7,2.4,7.1
Bead autofluor,5381,5556,6130,6269,3275,4055,5209,3470

57) COc1ccc(Cn2c(=O)[nH]c3cc(C(=O)N4CCN(c5ccccc5OC)CC4)ccc3c2=O)cc1
58) Cc1ccc(Cl)cc1N(Cc1ccc(C(=O)NCc2cccnc2)cc1)S(=O)(=O)c1ccccc1
59) CCOC(=O)c1cc(-c2ccccc2)n(CC(=O)Nc2ccc(OCC)cc2)c1C
60) Cc1cccc(C(=O)Nc2cccc(Br)c2)c1[N+](=O)[O-]
61) CC(CCCN1CCCC1)Nc1ccnc2cc(Cl)ccc12 (stereo unspecified)
62) COc1cccc(CN(C)C(=O)COc2cccc3c2OC(C)(C)C3)c1OC
63) Cc1ccc(Cn2nnc3c(=O)n(Cc4cc(C)ccc4C)cnc32)cc1
64) Cc1nnc(NC(=O)c2ccc(S(=O)(=O)C(F)F)cc2)s1

Screen / compound no.,57,58,59,60,61,62,63,64
ugtP null kill,1,1,-8,6,-8,13,7,9
PrP 5UTR inh,-15,9,-30,-24,-7,-3,-16,-10
Mtb hypoxia inh,2,2,-4,5,16,5,-5,4
Mtb hypoxia inh growth,2,-1,-3,2,11,5,10,2
BJeLR viability,-5,·,-3,-2,·,·,-8,2
RN4220 kill,-2.1,6.2,-0.9,1.9,6.3,8.8,4.7,2.3
Bead autofluor,3612,22366*,2656,1952,5451,3819,9349,3574

65) CC(=O)Nc1cccc(C(C)=NNC(=S)NC(C)C)c1
66) O=S(=O)(c1cc(O)ccc1O)c1cccc2c(S(=O)(=O)c3cc(O)ccc3O)cccc12
67) COc1cccc(/C=C/C(=O)OCC(=O)Nc2ccc3[nH]c(=O)[nH]c3c2)c1OC
68) Cc1ccc(S(=O)(=O)CCC(=O)N(CCN2CCOCC2)c2nc3ccccc3s2)cc1
69) Cc1cc(C(=O)N2CCN(S(=O)(=O)c3ccccc3)CC2)c(C)o1
70) CC(C)CN1C(=O)c2ccc(C(=O)NCc3ccc4c(c3)OCO4)cc2C1=O
71) O=C(O)CCc1nc2cccnc2n1Cc1ccccc1
72) CC1(c2ccccc2)NC(=O)N(CC(=O)Nc2ccc(S(=O)(=O)Nc3ncccn3)cc2)C1=O (stereo unspecified)
73) CCCNC(=O)CSC1=N/C(=C/c2ccc(F)cc2)C(=O)N1CC
74) O=C(CN1C(=O)NC2(CCCC2)C1=O)Nc1ccccc1N1CCCC1

Screen / compound no.,65,66,67,68,69,70,71,72,73,74
ugtP null kill,-1,·,·,-1,1,8,-2,5,3,0
PrP 5UTR inh,·,4,0,-20,-10,-12,-27,-17,-15,-23
Mtb hypoxia inh,7,·,·,-5,4,6,5,8,9,-2
Mtb hypoxia inh growth,5,·,·,0,11,3,11,2,4,6
BJeLR viability,·,-3,16,12,2,-1,-8,1,3,7
RN4220 kill,-1.6,·,·,1.6,0.5,1.3,-1.8,1.1,5.4,-1.2
Bead autofluor,·,3785,?,·,5894,4341,10963,?,7549,5400

Looked up by compound from the list above, 5 records:
72) CC1(c2ccccc2)NC(=O)N(CC(=O)Nc2ccc(S(=O)(=O)Nc3ncccn3)cc2)C1=O (stereo unspecified)
70) CC(C)CN1C(=O)c2ccc(C(=O)NCc3ccc4c(c3)OCO4)cc2C1=O
65) CC(=O)Nc1cccc(C(C)=NNC(=S)NC(C)C)c1
74) O=C(CN1C(=O)NC2(CCCC2)C1=O)Nc1ccccc1N1CCCC1
68) Cc1ccc(S(=O)(=O)CCC(=O)N(CCN2CCOCC2)c2nc3ccccc3s2)cc1

Screen / compound no.,72,70,65,74,68
ugtP null kill,5,8,-1,0,-1
PrP 5UTR inh,-17,-12,·,-23,-20
Mtb hypoxia inh,8,6,7,-2,-5
Mtb hypoxia inh growth,2,3,5,6,0
BJeLR viability,1,-1,·,7,12
RN4220 kill,1.1,1.3,-1.6,-1.2,1.6
Bead autofluor,?,4341,·,5400,·
